Screening data as filed in PubChem BioAssay.
Resorufin fluor – qHTS Assay for Spectroscopic Profiling in Resorufin Spectral Region. Compound fluorescence, resorufin region 547/598 nm, buffer; hits give high values. max dye-equivalent concentration, M. actives 0.04% (n = 59,000). AID 588, 2007; active = above 10 nM dye equivalent; inconclusive = 1 to 10 nM; inactive = 1 nM or less; a few of its hits are not listed in these tables; also: highest value over a series up to 38 µM
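Tris 100 mM pH 8.0; compound added, 15 min RT; CCD imager read, ex 547 nm/em 598 nm; signal normalized to resorufin standard curve (six concentrations per plate) as dye-equivalent concentration.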
AID923 – qHTS Assay for Allosteric/Competitive Inhibitors of Caspase-1: Spectroscopic Profiling in AFC Spectral Region. Potency, µM (top dose mostly 57.5 µM), for inactives: at the top dose fluorescence increase, actives largely listed as activators. compound fluorescence, AFC spectral region (405/520 nm); almost no hit is shown here. actives 1.1% (n = 75,000). AID 923, 2007; active = well fitted activation curve with a large enough effect; inconclusive = small, poorly fitted or top-dose-only effect;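 also: potency is read from the fitted curve at half-maximal effect; 0% is about no effect; scaled to a free AFC standard on each plate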
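Titrations up to 57 uM read every 20 sec for 3 min (405/520 nm) with 50 nM caspase 1 and 5 uM Ac-WEHD-AFC, pH 7.5 HEPES buffer. Fluorescence-vs-time intercept gave baseline, scaled against on-plate AFC standard.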
A488 fluor – qHTS Assay for Spectroscopic Profiling in A488 Spectral Region; compound autofluorescence, A488 spectral region, dye equivalency; hits give high values; max dye equivalency, M; actives 0.1% (n = 59,000); AID 591, 2007; active = above 10 nM dye equivalent; inconclusive = 1 to 10 nM; inactive = 1 nM or less; about half of its hits are not listed in these tables;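 also: highest value over a series up to 38 µM; compound alone in buffer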
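Intrinsic compound fluorescence is measured in 100 mM Tris buffer at pH 8.0 following 15 min incubation at room temperature. Intensities at 480 nm excitation/540 nm emission are calibrated to an on-plate A488 concentration series, giving dye-equivalent concentrations.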
A647 autofl – qHTS Assay for Spectroscopic Profiling in A647 Spectral Region | Compound fluorescence, A647 channel (570/671 nm), Tris buffer | 59,000 tested, under 10 active | AID 592, 2007 | max dye-equivalent concentration, M; active means above 1 µM dye equivalent; inconclusive means 0.1 to 1 µM; inactive means 0.1 µM or less;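 also: values scaled relative to a standard on each plate; highest value over a series up to 38 µM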
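Compound fluorescence was measured in 100 mM Tris buffer, pH 8.0, after 15 min at room temperature, using 570 nm excitation and 671 nm emission filters. Signal was normalized to a per-plate Alexa 647 standard curve and expressed as dye-equivalent concentration at each compound concentration.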
TSHR agonist – qHTS Assay for Agonists of the Thyroid Stimulating Hormone Receptor; Thyrotropin receptor (Homo sapiens), P16473; HEK293-CNG-TSHR cells (CNG channel as cAMP sensor), membrane potential dye, cAMP; actives 0.48% (n = 73,000); AID 926, 2007; Potency, µM (top dose mostly 57.1 µM), without a hit: at the top dose activation, usual class: activators; active = well fitted activation curve of enough size with the parental cells flat; inconclusive = any curve in the parental cells; inactive = parental cells flat and receptor cells flat or falling; also: potency is read from the fitted curve at half-maximal effect; % of control where 0% means no effect; weak receptor curves with flat parental cells got no call and are not listed
Target sequence (P16473 whole entry, looked up): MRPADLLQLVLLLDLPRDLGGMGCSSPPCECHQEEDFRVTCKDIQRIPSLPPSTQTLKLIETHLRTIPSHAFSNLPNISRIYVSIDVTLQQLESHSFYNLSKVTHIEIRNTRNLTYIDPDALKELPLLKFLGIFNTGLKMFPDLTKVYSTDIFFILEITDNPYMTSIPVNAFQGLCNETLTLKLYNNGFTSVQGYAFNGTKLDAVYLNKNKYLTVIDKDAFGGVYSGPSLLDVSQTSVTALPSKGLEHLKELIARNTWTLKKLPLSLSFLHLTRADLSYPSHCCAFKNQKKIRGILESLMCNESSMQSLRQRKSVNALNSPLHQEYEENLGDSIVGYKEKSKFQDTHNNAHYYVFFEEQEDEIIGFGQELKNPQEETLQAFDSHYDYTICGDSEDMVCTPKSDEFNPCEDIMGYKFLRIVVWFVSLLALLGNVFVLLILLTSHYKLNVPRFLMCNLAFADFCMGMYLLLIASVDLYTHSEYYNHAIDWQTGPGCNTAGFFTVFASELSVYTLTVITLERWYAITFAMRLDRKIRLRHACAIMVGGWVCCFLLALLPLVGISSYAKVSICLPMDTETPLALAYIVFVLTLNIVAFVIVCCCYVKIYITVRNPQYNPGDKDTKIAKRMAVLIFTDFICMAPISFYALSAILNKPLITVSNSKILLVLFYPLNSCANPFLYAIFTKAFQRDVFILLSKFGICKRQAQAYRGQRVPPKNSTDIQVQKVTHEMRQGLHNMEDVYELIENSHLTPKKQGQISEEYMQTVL
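HEK 293 cells stably expressing TSHR and a cAMP-gated CNG channel; parental CNG-only cells as counterscreen. Cells preloaded 60 min with membrane potential dye plus 100 uM RO 20-1724, then compound 30 min; fluorescence read at 590 nm.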
Numbers without * were called inactive; i = inactive; u = inconclusive; x = no result given; [ ] = remark or other dose. These rows are one share of the data; the hit share may differ from the screen's.

SMILES	Resorufin fluor	AID923	A488 fluor	A647 autofl	TSHR agonist
O=C(/C=N/O)NCCCN1CCCCCC1	x	-0.2%	x	x	2.3%[11.4 µM]
CCc1ccccc1NC(=O)c1ccc(F)c(S(=O)(=O)N2CCC(C(N)=O)CC2)c1	i	-0.4%	i	7.4e-09	2.3%
O=C(CSc1nc2ccccc2c(=O)n1CCCO)NCc1ccccc1	i	-2.0%	i	5.1e-09	1.5%
CCOc1ccc(C2C(C(=O)c3ccco3)=C(O)C(=O)N2Cc2cccnc2)cc1OC (configuration not stated)	i	5.0%	i	5.24e-08	1.3%
Nc1nc(-c2cccc([N+](=O)[O-])c2)cc(-c2cc(-c3cccc([N+](=O)[O-])c3)nc(N)n2)n1	i	0.1%[11.5 µM]	i	1e-09	0.2%[11.4 µM]
O=C(CSc1nncs1)NC(=O)NCc1ccccc1	i	-0.8%	i	2.23e-08	28.0%
CCC1CCCCN1Cc1ccc(OC)c(OC)c1 (configuration not stated)	x	-0.2%	x	x	-0.4%
COc1cc2c(cc1OC)CN(C(=O)CSc1nnc(C)s1)CC2	i	2.4%	i	3.4e-09	-1.5%
CC1(C)Cc2ccccc2C2CC(O)C(=O)N21 (configuration not stated)	i	4.8%	i	2.01e-08	u
CN(C)c1ccc(-c2nc(NCc3cccnc3)c3ccccc3n2)cc1	i	0.4%	i	4.16e-08	u
C=CCn1c(SCn2nnc3ccccc3c2=O)nnc1-c1ccc(F)cc1	i	1.5%	i	3.27e-08	3.0%
Cc1noc(C)c1-c1ccc2ncnc(Nc3ccc(F)cc3)c2c1	i	2.8%	i	1e-09	10.1%
CCC(c1nnnn1C(C)(C)CC)N(CCCO)Cc1cc2cccc(C)c2[nH]c1=O (configuration not stated)	i	10.6%	i	3.56e-08	u
O=C(c1cc(C(F)(F)F)cc(C(F)(F)F)c1)N1CCC2(CCCN(c3ccccn3)C2)CC1	i	0.6%	i	1e-09	u
CC(Cc1ccccc1)C(=O)NCC1CC1 (configuration not stated)	x	-0.1%	x	x	-1.8%
COc1cnn(-c2ccccc2)c(=O)c1N(C)C	i	0.4%	i	1e-09	24.6%
O=C(CCc1ccccc1)NCCCN1CCOCC1	i	0.7%	i	1e-09	0.2%
O=C(CS(=O)(=O)Cc1ccccc1)Nc1cccnc1	i	-2.4%	i	1.46e-08	-0.9%
CCOc1ccccc1Nc1ncnc2ccccc12	i	0.0%	i	1.82e-08	26.1%
O=C(COC(=O)C1COc2ccccc2O1)NC1CCS(=O)(=O)C1 (configuration not stated)	i	0.0%	i	4.08e-08	4.9%
O=C(O)c1ccccc1C(=O)NCc1cccnc1	i	0.7%	i	1e-09	-4.5%
CCCc1nc2sc3c(c2c(=O)n1N)CCC3	x	0.6%	x	x	5.0%
Cc1ccc(C(=O)Nc2ccc(S(=O)(=O)N3CCN(C)CC3)cc2)o1	x	-1.9%	x	x	-0.8%
Cc1nn(Cc2ccccc2)c2c1C(c1ccncc1)C(C#N)=C(N)O2 (configuration not stated)	x	0.7%	x	x	-1.3%[11.4 µM]
COC(=O)c1c(C(=O)OC)c(C)n(Cc2cccnc2)c1C	i	0.2%	i	7.1e-09	2.8%
c1ccc(CN2CCN(c3nc(-c4ccccc4)nc(-n4ccnc4)n3)CC2)cc1	i	-0.2%	i	3.6e-09	u
Cn1c(Cc2cccs2)nnc1SCc1nc2ccccc2[nH]1	i	0.5%	i	4.21e-08	0.6%
Cc1ccc2c(NC(=O)C3CC3)c(C)ccc2n1	i	1.3%	i	2.24e-08	1.5%
O=C(CN(C(=O)c1cc2c(s1)CCC2)C1CCCC1)NCc1cccs1	i	-1.4%	i	5.3e-09	u
O=C(NC1CCCCCC1)c1cc(S(=O)(=O)N2CCOCC2)ccc1N1CCCCC1	i	-0.4%	i	3.9e-09	u
CC(C)(C)c1cc(NC(=O)COC(=O)c2ccc3c(=O)n4c(nc3c2)CCC4)n(-c2ccccc2)n1	i	1.0%	i	1e-09	7.5%
Cc1cc(NS(=O)(=O)c2ccc(OCCNS(C)(=O)=O)cc2)no1	i	-1.7%	i	1.71e-08	2.3%
O=C(O)CCC(=O)CCC(=O)c1ccc(Cl)cc1	x	3.5%	x	x	9.4%[11.4 µM]
Cc1ccc(NC(=O)NCCc2ccc(S(N)(=O)=O)cc2)cc1	i	0.6%	i	2.94e-08	1.4%
COc1cccc(NC(=O)C2CCCN(S(=O)(=O)c3cccc4cccnc34)C2)c1 (configuration not stated)	x	2.0%	x	x	-0.5%
CCCCNC(=O)CCCn1c(=O)[nH]c2ccc(Br)cc2c1=O	i	1.0%	i	6.2e-09	-2.3%
O=C(O)CCNS(=O)(=O)c1ccc2c(c1)Cc1ccccc1-2	i	-2.5%	i	1e-09	0.3%
COc1cccc(-n2c(C)nnc2SCC(=O)Nc2ccccc2N2CCOCC2)c1	i	0.7%	i	2.7e-08	7.4%[11.4 µM]
Cc1cc2cc(CNC(=O)C3CC3)ccc2n1C	i	4.5%	i	1.71e-08	5.5%
COc1ccc(N(C(=O)Nc2ccc(Cl)cc2)C2=NCCC2)cc1	i	0.2%	i	2.47e-08	1.0%
O=C(COC(=O)C1c2ccccc2Oc2ccccc21)NC1CCS(=O)(=O)C1 (configuration not stated)	i	-0.4%	i	1e-09	5.3%
S=c1nc(-c2ccccc2)[nH]n1-c1ccccc1	i	x	i	2.99e-08	x
Cn1c(=O)[nH]c(=O)c2c1nc(Br)n2CCSc1ncccn1	i	x	i	3.9e-09	x
CCNCc1cc2cc(C)ccc2[nH]c1=O	i	x	i	2.83e-08	x
CCOC(=O)C(NC(=O)c1ccccc1)=C1CCCCC1	x	1.3%	x	x	19.3%

Reprinted from the results shown, three compounds:
SMILES	Resorufin fluor	AID923	A488 fluor	A647 autofl	TSHR agonist
CC(C)(C)c1cc(NC(=O)COC(=O)c2ccc3c(=O)n4c(nc3c2)CCC4)n(-c2ccccc2)n1	i	1.0%	i	1e-09	7.5%
Cc1cc(NS(=O)(=O)c2ccc(OCCNS(C)(=O)=O)cc2)no1	i	-1.7%	i	1.71e-08	2.3%
O=C(O)CCC(=O)CCC(=O)c1ccc(Cl)cc1	x	3.5%	x	x	9.4%[11.4 µM]

Next structures follow:
SMILES	Resorufin fluor	AID923	A488 fluor	A647 autofl	TSHR agonist
CCCc1cc(C(=O)Nc2sc(C)c(CC)c2C#N)no1	x	3.6%	x	x	17.2%
Fc1ccc(Cn2nnnc2CN2CCN(C3CCCC3)CC2)cc1	i	-1.3%	i	3e-09	u
Cc1ccc(S(=O)(=O)Nn2c(C)nnc2-n2nc(C)cc2C)cc1	i	0.5%	i	1.32e-08	2.5%
Cc1ccc(NC(=O)c2c(O)c3ccccc3n(C)c2=O)nc1	i	3.7%	i	3.1e-09	u
COc1ccc(N2CCN(S(=O)(=O)c3cccs3)CC2)cc1	i	-0.6%	i	2.11e-08	-1.2%
COc1ccccc1N(CC(=O)NC1CCCCC1)C(=O)CCC(=O)Nc1ccccn1	i	-0.5%	i	6.1e-09	1.5%
Cc1noc(N)c1C(=O)Nc1ccc(F)cc1	i	-2.7%	i	1.34e-08	0.2%
CCCn1nc(C(=O)Nc2cc(C(=O)OC)ccc2C)c2ccccc2c1=O	i	-1.1%	i	4.6e-09	u
Cc1cc(N2CCCC2)nc(-c2ccccc2O)n1	i	0.0%	i	4.5e-08	13.4%
Cc1cc(=O)oc2cc(OCC(O)CN3CCc4ccccc4C3)ccc12 (configuration not stated)	i	4.2%	i	1e-09	-1.7%
CN(C)CCCNCCCNC(=O)c1ccco1	i	1.3%	i	1.67e-08	-1.9%
CCOC(=O)C1CCN(Cc2ccc(F)c(Br)c2)CC1	x	4.2%	x	x	20.9%
O=C(c1ccc(-n2cnnn2)cc1)N1CCN(C(c2ccccc2)c2ccccc2)CC1	i	-0.1%	i	1.83e-08	3.3%
COc1ccc(CNC(=O)c2cc(-c3ccccc3O)n[nH]2)cc1	i	0.2%	i	5.7e-09	9.0%
Cc1cc(C)n2nc(S(=O)(=O)N(C)c3ccccc3)nc2n1	x	0.5%	x	x	12.4%
N#C/C(C(N)=O)=c1/ccc2c(c1)N1C3=C(CCCC3)CC3CCCCC31N=2 (configuration not stated)	i	5.8%	i	4.7e-09	u
O=C(CN1C(=O)c2ccccc2C1=O)N1CCN(c2ccccn2)CC1	i	-1.6%	i	1e-09	0.9%
C=CCn1c(SCC(=O)Nc2ccccc2CC)nnc1-c1ccncc1	i	-1.7%	i	3.5e-09	2.4%
CCCCOc1ccc(C)cc1CN(CCO)CCO	i	x	i	1e-09	x
CNS(=O)(=O)c1cc(OCC(N)=O)c(C)cc1Cl	i	-0.6%	i	2.29e-08	-2.5%
COC(=O)C1CCN(C(=O)COC(=O)c2n[nH]c3ccccc23)CC1	i	-1.0%	i	5.77e-08	-3.4%
CCN(CC)CCN(Cc1cc2cc(C)ccc2[nH]c1=O)C(=O)Nc1ccccc1OC	i	0.9%	i	4.3e-09	21.6%
Cc1ccccc1N(CC(=O)NCc1ccncc1)S(C)(=O)=O	i	0.4%	i	2.2e-09	0.6%
FC(F)(F)c1cc(-c2ccccc2)nc(-n2cncn2)n1	i	-0.9%	i	1e-09	2.9%
O=C(O)c1cc2ccccc2n1-c1ccccc1	i	0.7%	i	1e-09	u
O=C(COC(=O)CCC(=O)c1ccc2c(c1)OCCO2)NCc1ccc2c(c1)OCO2	i	0.0%	i	3.32e-08	7.2%
Nc1nnnn1NCc1cccc(OCc2ccccc2)c1	i	-0.3%	i	1e-09	8.8%
COC(=O)COc1ccc2c(=O)c(Oc3ccccc3)c(C)oc2c1	x	-1.1%	x	x	u
COc1ccc(C)cc1NS(=O)(=O)c1cn(C)c(=O)n(C)c1=O	x	-3.4%	x	x	u
CCOC(=O)c1cnn(-c2cc(C)nc3c(-c4ccccc4)c(C)nn23)c1N	i	1.1%	i	1e-09	8.8%[11.4 µM]
COc1ccc(C2C(C#N)=C(N)Oc3c2oc(CO)cc3=O)c(OC)c1OC (configuration not stated)	i	-2.3%	i	3.18e-08	1.9%
CCCCOc1ccccc1NC(=O)CSc1nnnn1C(C)(C)C	i	-0.7%	i	1.94e-08	u
CCCC(=O)Nc1ccc(N2CCN(C(=O)c3cccs3)CC2)cc1	i	-0.6%	i	2.12e-08	0.9%[11.4 µM]
COCCCn1c(=N)c(C(=O)NCc2ccc3c(c2)OCO3)cc2c(=O)n3cccc(C)c3nc21	i	13.2%	i	1e-09	-9.8%
COc1ccccc1CC(=O)Nc1ccc(O)cc1C(=O)O	i	0.7%	i	7.9e-09	-11.0%
COc1ccccc1NC(=O)Nc1c(C)n(C)n(-c2ccccc2)c1=O	i	-1.1%	i	1.3e-08	6.9%
C/C=C/c1ccc(OCCCN2C(=O)NC(C)(C)C2=O)c(OC)c1	i	0.1%	i	3.71e-08	3.9%
Cc1c(NC(=O)Oc2ccccc2)sc(=S)n1C	x	1.2%	x	x	2.2%[11.4 µM]
O=C(Cn1c(SCC(=O)N2CCCc3ccccc32)nc2ccccc21)N1CCCC1	i	-0.3%	i	2.17e-08	4.0%
O=C(NCc1ccc2c(c1)OCO2)c1cccc(F)c1	x	-0.4%	x	x	u
Cc1cc(C)n2nc(S(=O)(=O)NC3CCCCC3)nc2n1	x	-0.9%	x	x	1.0%
O=C1CSC(c2cn(-c3ccccc3)nc2-c2cc3ccccc3oc2=O)N1Cc1ccco1 (configuration not stated)	i	10.5%	i	1e-09	x
COc1ccc(CN(C(=O)c2oc3ccccc3c2C)C2CCS(=O)(=O)C2)cc1OC (configuration not stated)	i	-1.7%	i	1e-09	1.9%
O=C(c1cc(S(=O)(=O)N2CCCCC2)ccc1F)N1CCCCC1	i	-1.6%	i	3.35e-08	u
